Source: PubChem BioAssay (Emory University Molecular Libraries Screening Center)
Measles inh: inhibitors of measles virus growth in cells, primary screen, measles RdRp inhibitor project, cell-based, single point, HTS; z-score (test concentration not listed); 0.1% of 33,000 active; infected Vero cells, GFP fluorescence, 64 h; active compounds read low; AID 745, 2007;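 active means z-score under -3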;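 further: score is relative to mean and SD of the compound wells of a plate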
An asterisk follows results filed as active.

| Measles inh | Structure |
| --- | --- |
| 2.9 | Cc1ccccc1-n1nc2c(c1NC(=O)c1ccc(S(=O)(=O)N3CCCCC3)cc1)CS(=O)(=O)C2 |
| 0.57 | Cc1cc(OCC(=O)Nc2ccc(N(C)C)cc2)ccc1C(C)C |
| -0.78 | COc1ccc(NC(=O)CCS(=O)(=O)c2cc(Br)cc3c2N(C(=O)C2CC2)CC3)cc1 |
| -1.3 | COc1ccc(Nc2nc(-c3cc4ccccc4oc3=O)cs2)cc1 |
| 1.6 | COCCNC(=O)C1CCC(CNS(=O)(=O)c2c(C)cc(C)cc2C)CC1 (stereo unspecified) |
| -0.34 | COc1ccc(C2(CNC(=O)c3ccc(OC)c([N+](=O)[O-])c3)CCCC2)cc1OC |
| 1.3 | CCOC(=O)c1c(CC(C)C)csc1N=CC1C(=O)CC(C)(C)CC1=O |
| -1.4 | Cc1cc(C)cc(-n2nc3c(c2NC(=O)c2ccc(S(=O)(=O)N(C)C)cc2)CSC3)c1 |
| 0.99 | COc1ccc2c(c1)-c1nc(N=Cc3ccccc3O)sc1CC2 |
| -1.7 | O=C(NCc1ccc2c(c1)OCO2)c1ccc(CNS(=O)(=O)c2ccc(F)cc2)cc1 |
| -0.05 | O=C(OCCN1C(=O)c2ccc([N+](=O)[O-])cc2C1=O)C1CCCCC1 |
| 1.1 | CCN(Cc1ccccc1)S(=O)(=O)c1ccc(C(=O)Nc2nnc(-c3ccc(F)cc3)o2)cc1 |
| -0.49 | COc1ccc(OC)c(C2NC(=S)NC(C)=C2C(=O)Nc2ccccc2)c1 (stereo unspecified) |
| 1.1 | CCCCC(CC)Cn1c(=S)[nH]c2ncccc2c1=O (stereo unspecified) |
| -1.3 | Cc1cccc(NC(=O)c2cc3c(=O)n4ccccc4nc3s2)c1C |
| 0.43 | O=C(NC(C(=O)N1CCCCC1)C12CC3CC(CC(C3)C1)C2)c1ccc([N+](=O)[O-])cc1 (stereo unspecified) |
| 0.16 | O=C(Nc1nnc(-c2ccc([N+](=O)[O-])cc2)s1)c1ccccc1Cl |
| -0.64 | COc1ccc(O)c(C=Nc2ccncc2)c1 |
| -0.31 | CC1(C)CC(=C2C3C=CC2C2C(=C4CC(C)(C)NC(C)(C)C4)C=CC32)CC(C)(C)N1 (stereo unspecified) |
| 1.2 | O=C1c2ccc([N+](=O)[O-])cc2C(=O)N1c1ccccc1-c1ccccc1 |
| -0.96 | CCOC(=O)c1cnc2c(ccc3ccccc32)c1NCc1ccco1 |
| 0.96 | O=C(Oc1ccc(OC(=O)c2ccc3c(c2)C(=O)N(c2ccccn2)C3=O)cc1)c1ccc2c(c1)C(=O)N(c1ccccn1)C2=O |
| -0.57 | CCOC(=O)c1c(NC(=O)c2ccc([N+](=O)[O-])cc2)sc(C(=O)NC2CCCC2)c1C |
| 1.1 | O=C(NC1CC1)c1ccc2c(c1)N(Cc1cccc(Cl)c1)C(=O)CS2 |

Shown with each value named: 4 of the compounds above
structure: CC1(C)CC(=C2C3C=CC2C2C(=C4CC(C)(C)NC(C)(C)C4)C=CC32)CC(C)(C)N1 (stereo unspecified)
  Measles inh: -0.31

structure: COc1ccc(Nc2nc(-c3cc4ccccc4oc3=O)cs2)cc1
  Measles inh: -1.3

structure: COc1ccc(OC)c(C2NC(=S)NC(C)=C2C(=O)Nc2ccccc2)c1 (stereo unspecified)
  Measles inh: -0.49

structure: COc1ccc2c(c1)-c1nc(N=Cc3ccccc3O)sc1CC2
  Measles inh: 0.99

(further entries)
| Measles inh | Structure |
| --- | --- |
| -0.15 | CCOC(=O)c1c(NC(=O)c2ccc(S(=O)(=O)N3CCc4ccccc4C3)cc2)sc2c1CC(C)(C)NC2(C)C |
| 0.06 | C=CCSc1nc2sc3c(c2c(=O)n1-c1ccccc1)CC(C(C)C)OC3 (stereo unspecified) |
| -1.5 | Nc1cc(=O)[nH]c(=O)n1Cc1ccccn1 |
| 0.28 | CC1(C)Cc2nc(N3CCCC3)c(C#N)cc2CO1 |
| -0.64 | CCOC(=O)c1cc2c(=O)n3ccccc3nc2n(CCCOC)c1=NC(=O)c1ccc(C)c([N+](=O)[O-])c1 |
| -0.99 | CC(C)c1cc(NC(=O)c2ccc([N+](=O)[O-])cc2)cc(C(C)C)c1O |
| -0.9 | O=C1CSC(c2cccnc2)N1C1CCCCC1 (stereo unspecified) |
| 0.96 | CCSc1nc2c(c(=O)n1C1CCOC(C)(C)C1)C1(CCCCC1)Cc1ccccc1-2 (stereo unspecified) |
| -0.49 | Cc1ccc(Nc2c(-c3ccc(C)o3)nc3cccc(C)n23)cc1 |
| 0.34 | Cc1ccc(C(=O)CC(SCCO)c2ccc([N+](=O)[O-])cc2)cc1 (stereo unspecified) |
| -0.19 | Cc1ccc(N2C(=O)C(Cl)=C(Nc3ccccc3F)C2=O)c(C)c1 |
| -0.82 | Cc1cc(Cl)ccc1OCCCC(=O)Nc1cccc(C(F)(F)F)c1 |
| -0.25 | CCC1Oc2ccccc2N(CC(=O)NCCCOC(C)C)C1=O (stereo unspecified) |
| -0.77 | CCOc1ccc(-c2cc(C(=O)NCCN3CCCC3)c3ccccc3n2)cc1 |
| -0.75 | CCOC(=O)c1cc2c(=O)n3ccccc3nc2n(CC2CCCO2)c1=NC(=O)C(CC)c1ccccc1 (stereo unspecified) |
| 0.45 | CCC(C)NC(=O)C1(C)CCC(=O)N1Cc1ccccc1Cl (stereo unspecified) |
| 0.33 | COc1ccc2nc(N3CCCC(C(=O)NCCCOC(C)C)C3)sc2c1 (stereo unspecified) |
| -0.8 | O=C(COc1nsnc1N1CCOCC1)Nc1cccc(C(F)(F)F)c1 |
| 0.03 | Cc1nc2sc(C(c3ccco3)N3CC(C)CC(C)C3)c(O)n2n1 (stereo unspecified) |
| 1 | OCCN1CN=C(Nc2nc3ccccc3o2)NC1 |
| -0.51 | COC(=O)C1=C(C)NC2=C(C(=O)CC(C)(C)C2)C1c1cc(OC)c(OC)cc1OC (stereo unspecified) |
| -0.26 | Fc1ccc(-c2csc(-c3nc(-c4ccc(F)cc4)cs3)n2)cc1 |
| 1.2 | O=C(c1cc2nc(-c3cccs3)cc(C(F)(F)F)n2n1)N1CCN(C(=O)c2ccco2)CC1 |
| 1.3 | Cc1ccc2cc3cc(C(=O)Nc4cccnc4)sc3nc2c1 |
| 0.26 | CCC(=O)N1c2ccccc2-c2nnc(SC)nc2OC1c1ccccc1Cl (stereo unspecified) |
| 1.6 | NS(=O)(=O)c1ccc(CCNC(=O)CCN2C(=O)C3C4C=CC(CC4)C3C2=O)cc1 (stereo unspecified) |
| -0.6 | CCOc1ccc(C2c3[nH]c4ccccc4c3CCN2C(=O)Cn2nc([N+](=O)[O-])c(Br)c2C)cc1 (stereo unspecified) |
| 0.22 | CCOc1cccc2c1OC1(C)CC2NC(=O)N1c1cccc(C(=O)N2CCN(c3ccccc3)CC2)c1 (stereo unspecified) |
| -0.64 | Cc1cccc2oc(-c3cc(N=Cc4ccc(Cl)c([N+](=O)[O-])c4)ccc3O)nc12 |
| -0.07 | CN1CCCN(C2CC(=O)N(c3ccc(Br)cc3)C2=O)CC1 (stereo unspecified) |
| 1.1 | CCOC(=O)C1=C(C)Nc2nc(SCc3cccc(C)c3)nn2C1c1ccccc1OCC (stereo unspecified) |
| -0.25 | O=c1c2c(nc(SCc3ccc(Cl)cc3)n1-c1ccccc1)CCS2 |
| 1.3 | O=S(=O)(NC1CCCc2ccccc21)c1cccc2nonc12 (stereo unspecified) |
| -0.07 | CN1CC(C(=O)N2CCN(c3ccccc3F)CC2)c2ccccc2C1=O (stereo unspecified) |
| -1.5 | COC(=O)CC1(O)c2ccccc2C(=O)N1Cc1ccccc1 (stereo unspecified) |
| -0.76 | CCCN(CCC)c1ncnc2c1cnn2-c1cccc(C)c1 |
| -0.27 | COC(=O)c1ccc(C(=O)OC)c(NC(=O)c2ccc(C)c([N+](=O)[O-])c2)c1 |
| 1.1 | O=C(Nc1c2c(nn1-c1ccc(F)cc1)CS(=O)C2)c1ccc(S(=O)(=O)N2CCCC2)cc1 (stereo unspecified) |
| -0.29 | Cc1nnc(NC(=O)COc2ccc3c(C)cc(=O)oc3c2)s1 |
| 0.44 | Cc1nnc(SCCC(=O)Nc2ccc(C(C)(C)C)cc2)s1 |
| 0.15 | O=C(NCC1CCCO1)c1ccc2c(=O)n(Cc3ccc(Cl)cc3)c(=S)[nH]c2c1 (stereo unspecified) |
| -1 | O=C1CSC(c2cn(-c3ccccc3)nc2-c2ccc(Cl)cc2)N1Cc1ccccc1 (stereo unspecified) |
| 0.89 | C=CCn1cc(C)c(=O)n(CC=C)c1=O |
| -0.01 | CC1(C)CC(=O)c2sc(NC(=O)c3cccc(Br)c3)nc2C1 |
| 0.31 | COc1ccc(-c2cc(C(=O)Nc3sc4c(c3C(N)=O)CCCC4)no2)cc1 |
| 1.8 | CC1(C)COCN1C(=O)c1cc2c(=O)n3ccccc3nc2s1 |
| -1.2 | COc1ccc(S(=O)(=O)N(CC(=O)Nc2ccc(Cl)cc2)c2ccc(C)cc2)cc1OC |
| -1.2 | COc1ccc(S(=O)(=O)NCC2CCC(C(=O)NCC3CCCO3)CC2)cc1 (stereo unspecified) |

For reference, 3 of the compounds above.
| Measles inh | Structure |
| --- | --- |
| 1.8 | CC1(C)COCN1C(=O)c1cc2c(=O)n3ccccc3nc2s1 |
| -1.2 | COc1ccc(S(=O)(=O)N(CC(=O)Nc2ccc(Cl)cc2)c2ccc(C)cc2)cc1OC |
| -1.2 | COc1ccc(S(=O)(=O)NCC2CCC(C(=O)NCC3CCCO3)CC2)cc1 (stereo unspecified) |

Carrying on:
| Measles inh | Structure |
| --- | --- |
| 1.6 | Cc1ccc(-c2c(C#N)c(SCC(=O)NCc3ccccc3)nc3c2CCCC3)cc1 |
| -0.16 | Cc1ccc(C2C(C(=O)OC(C)(C)C)C(=O)CC(C)(O)C2C(=O)OC(C)(C)C)cc1 (stereo unspecified) |
| -0.62 | COc1cc2c(cc1OC)C(COc1cc(C)cc(C)c1)N(C(=O)c1ccc(S(=O)(=O)N3CCOCC3)cc1)CC2 (stereo unspecified) |
| 0.23 | COc1ccc(C2c3sc(=O)[nH]c3SC3C4CCC(C4)C23)cc1 (stereo unspecified) |
| 0.15 | CCCCOc1ccc(C2C(N3C(=O)c4ccccc4C3=O)C(=O)N2c2ccc(C)cc2)cc1 (stereo unspecified) |
| -0.02 | CC1(C)Cc2nc(Cl)c(C(=O)O)cc2CO1 |
| -0.55 | COCCN1C(=O)c2ccccc2C(C(=O)N2CCCCCC2)C1c1c[nH]c2ccccc12 (stereo unspecified) |
| -0.37 | COc1ccccc1-n1c(SCC(=O)NC2CCCCC2)nc2c(c1=O)SCC2 |
| -0.6 | Clc1ccccc1C=Nc1ccc2c(c1)OCCO2 |
| -0.04 | COc1ccccc1-c1cc(C(=O)Nc2ccc(OC(F)(F)F)cc2)no1 |
| -2.1 | O=C(Nc1c2c(nn1-c1ccc(Cl)cc1)CSC2)c1ccc(Cl)cc1 |
| 1.9 | COCCNC(=O)c1c[nH]c2ccc(S(=O)(=O)Nc3cccc(C(F)(F)F)c3)cc2c1=O |
| -0.42 | COC(=O)c1ccc(C(=O)Nc2nc3ccc4ccccc4c3s2)cc1 |
| 1.1 | CCc1cccc(N2C(=O)N(C(=O)c3cccc([N+](=O)[O-])c3)C3CC2(C)Oc2ccccc23)c1 (stereo unspecified) |
| -0.82 | COc1ccccc1C(CCNS(=O)(=O)c1ccccc1)c1ccc2c(c1)OCO2 (stereo unspecified) |
| -1.1 | O=C(COc1ccc2cc(Br)ccc2c1Br)NCc1ccccc1 |
| -1 | S=c1nc(-c2ccccc2)c(-c2ccccc2)n[nH]1 |
| -0.14 | O=C(NCCc1ccccc1)c1ccc2nc3cc(Cl)ccc3c(=O)n2c1 |
| 0.3 | O=[N+]([O-])c1cccc(-c2nc(=S)c3c(n2Cc2ccco2)CCCC3)c1 |
| -0.75 | COc1ccccc1C1C2=C(CCCC2=O)Nc2nc(SCc3ccccc3Cl)nn21 (stereo unspecified) |
| 1.2 | CCCOC(=O)C1=C(C)NC2=C(C(=O)C(C(=O)OC)C(C)C2)C1c1ccccc1C (stereo unspecified) |
| 2.8 | C=Cn1cccc1-c1cccs1 |
| 0.21 | Cn1c(=O)cc(SCC(=O)NCCCN2CCCC2)c2ccc(Cl)cc21 |
| -0.67 | COc1ccc2nc3sc(C(=O)NCc4cc(Br)ccc4OC)cc3cc2c1 |
| 0.12 | Cc1ccc2[nH]c3c(N4CCCCC4)ncnc3c2c1 |
| -0.84 | CCC1CCCCN1C(=O)CSc1nnc(CNC(=O)c2cccs2)o1 (stereo unspecified) |
| 0.41 | O=C(Cn1cnc2scc(-c3ccccc3)c2c1=O)c1ccc(Cl)cc1 |
| -0.13 | O=C1CCC([N+](=O)[O-])C(c2ccccc2C(F)(F)F)N1 (stereo unspecified) |
| -0.71 | CCOc1ccc(C2=NC(c3ccc(F)cc3)NC(c3cccc(OCC)c3O)C2)cc1 (stereo unspecified) |
| -1.2 | COc1ccc(Cn2c(SCc3ccccc3F)nc3ccsc3c2=O)cc1 |
| 0.63 | COc1ccc(S(=O)(=O)NCc2ccc3c(c2)OCO3)cc1 |
| 0.22 | COCc1cc(=O)n2[nH]cc(-c3ccccc3)c2n1 |
| 0.17 | COCCNc1nc2c(c(=O)n(Cc3ccc(OC)cc3)c(=O)n2C)n1C |
| -0.32 | Cc1cccc(C)c1NC(=O)Cn1c(=O)n(-c2ccc3c(c2)OCO3)c(=O)c2c(C)c(C)sc21 |
| -0.15 | O=C1Nc2ccccc2C1=Nc1ccccc1Br |
| -0.33 | Fc1ccc(C2CC(c3ccccc3F)n3nnnc3N2)cc1 (stereo unspecified) |
| -0.13 | Cc1ccc2occ(C3Nc4ccccc4NC4=C3C(=O)CC(c3cccs3)C4)c(=O)c2c1 (stereo unspecified) |
| -0.33 | COc1ccccc1Cn1c(=S)[nH]c2ccc(Br)cc2c1=O |
| -0.43 | Cc1nnc(NC(=O)c2ccccc2[N+](=O)[O-])s1 |
| -1 | COc1ccc(Nc2ncc(C(=O)NC3CCCCC3)c3ccccc23)cc1 |
| -0.56 | CCN(c1ccc(C)c(C)c1)S(=O)(=O)c1cc(Br)cc2c1N(C(C)=O)C(C)C2 (stereo unspecified) |
| -1.3 | CC(=O)Nc1ccccc1C(=O)C(=O)Nc1ccc(Cl)cc1 |
| -0.28 | CC(=O)OCC#CCSc1nnc(-c2ccc(C)cc2)o1 |

Reformatted: 2 of the compounds above
Compound	Measles inh
COc1ccccc1Cn1c(=S)[nH]c2ccc(Br)cc2c1=O	-0.33
Cc1nnc(NC(=O)c2ccccc2[N+](=O)[O-])s1	-0.43

An excerpt (hit frequency here may not be typical).
